Screening results (PubChem)
VACV mCherry inh – inhibitors of vaccinia virus infection (mCherry reporter signal); Vaccinia virus mCherry reporter infection, fluorescence; about a quarter of the inactives have no number; AID 720579; Potency, µM (series often up to 36.5 µM), inactives show at the highest dose activity change, negative = inhibition, most hits filed as inhibitors; hit rate 0.63% among 310,000; active = well fitted inhibition curve with a large enough effect; inconclusive = small, poorly fitted or top-dose-only effect; inactive = no such curve, though single readings can be large or run the other way; tested in A549 cells; further: nearly all actives have a fitted effect of over 35% in size; inactives centre near -10
VACV Venus inh – inhibitors of vaccinia virus (Venus reporter); Vaccinia virus Venus reporter expression, fluorescence; Potency, µM (series often up to 36.5 µM), without a hit: at the highest dose activity change, negative = inhibition, usual class: inhibitors; hit rate 0.46% among 330,000; active means well fitted inhibition curve with a large enough effect; inconclusive means small, poorly fitted or top-dose-only effect; inactive means no such curve, though single readings can be large or run the other way; tested in A549 cells; further: nearly all actives have a fitted effect of over 30% in size; inactives centre near -10
Starred values were filed as active, the others as inactive; i = inactive; ? = inconclusive; · = not tested or not shown; & = joins results of further samples; [ ] = dose if it differs, or a comment. On the % scale 0 is the no-effect control and ±100 the full control effect; potency means the concentration at half of the fitted maximal effect. Rows were taken by chance. About 0.88% of those tested had a hit in this group.

Start of the listing, in advance (4 entries):
SMILES | VACV mCherry inh | VACV Venus inh
O=C(CNC(=O)c1ccccc1)OCc1cc(=O)n2ccsc2n1 | 4% | 12%
COc1ccc(NC(=S)N2CCCN(Cc3cccc(Cl)c3)C2)cc1 | -23% | 9%
O=C(COc1ccc(Br)cc1)NCc1ccccn1 | -6% | -11%
COc1ccc(NC(=O)Nc2ccc3c(c2)C(=O)N([C@@H](C)CO)C[C@@H](C)[C@@H](CN(C)CC2CCCCC2)O3)cc1 | -13% | -30%

Main list, previewed entries included:
SMILES | VACV mCherry inh | VACV Venus inh
O=C(CNC(=O)c1ccccc1)OCc1cc(=O)n2ccsc2n1 | 4% | 12%
COc1ccc(NC(=S)N2CCCN(Cc3cccc(Cl)c3)C2)cc1 | -23% | 9%
O=C(COc1ccc(Br)cc1)NCc1ccccn1 | -6% | -11%
COc1ccc(NC(=O)Nc2ccc3c(c2)C(=O)N([C@@H](C)CO)C[C@@H](C)[C@@H](CN(C)CC2CCCCC2)O3)cc1 | -13% | -30%
COc1ccc2c(c1)NP(=S)(c1ccccc1)N2 (centres undefined) | ? | 8%
Cc1nn(Cc2ccccc2)c(Cl)c1C(=O)NCc1ccco1 | -4% | 4%
Cc1sc2ncn(CC(=O)N3CCN(c4ccc(F)cc4)CC3)c(=O)c2c1S(=O)(=O)N1CCN(c2ncccn2)CC1 | -10% | -10%
CCCC(=O)n1nc(NCc2ccc(OC)cc2)nc1NCc1ccc(OC)cc1 | -27% | 8%
CCOC(=O)c1ccc(NC(=O)COCc2cc(-c3ccc4c(c3)OCO4)on2)cc1 | -12% | -8%
O=C1c2cccc3c(O)ccc(c23)C(=O)N1c1ccc(Cl)cc1 | -20% | 399%[activator]
CSCCC(NC(=O)c1ccccc1Cl)C(=O)N(C)Cc1cccs1 (centres undefined) | i | -12%
CC(C)(C)OC(=O)N(Cc1ccccc1)Cc1cccc(OCc2cccc(NC(=O)C3CC3)c2)c1 | -7% | ?
COC(=O)[C@H]1C[C@@]2(O)CN(S(=O)(=O)c3ccc(C)cc3)C[C@@]2(OC(=O)Nc2cccs2)C[C@H]1C(=O)OC | i | -13%
O=C(NN=Cc1ccccc1OC(F)F)c1ccc(NS(=O)(=O)c2cccs2)cc1 | -28% | -26%
CCc1nc(N[C@@H](CC(C)C)C(=O)O)c2oc3ccccc3c2n1 | -15%[1.46 µM] | 0%
CC(C)(C)OC(=O)NC(CCNC=C1C(=O)OC(C)(C)OC1=O)C(=O)O (centres undefined) | -14% | -12%
O=c1[nH]c(=O)n(-c2ccc(F)cc2)c2c1C(C(F)(F)F)(C(F)(F)F)N=C(c1ccc(F)cc1)N2 | ? | ?
CCCCN(C)C(=O)c1nc2ccccn2c1CNCCCn1ncc2ccccc21 | -14% | -13%
O=C(O)c1cccc2c1C(=O)N(Cc1ccccc1)C2 | i | -5%
Cc1nn(CC(O)COc2ccc3c(c2)CCC3)c(C)c1C (centres undefined) | -3% | -20%
CC(=O)c1cccc(NC(=O)N2CCCC2C(=O)NCc2ccccc2)c1 (centres undefined) | -9% | -1%
COC(=O)c1cn(CCC#N)nc1-c1ccc2ccccc2c1 | -20% | -20%
COCCn1c(C)cc(O)c(C(c2ccccc2)N2CCN(c3ccccc3F)CC2)c1=O (centres undefined) | -13% | -9%
COCC(C)n1c(SCc2ccc(OC)c(F)c2)nc2ccccc2c1=O (centres undefined) | -7% | -14%
Cc1nc2c(-c3ccccc3)c(C)nn2c(C)c1CCC(=O)Nc1ccccc1F | -13% | -15%
COC(=O)C1=C(N)Oc2cc(C)n(Cc3cccnc3)c(=O)c2C1c1ccc(OC)c(OC)c1OC (centres undefined) | -10% | -6%
Cn1c(=O)c2sccc2n2c(CCCC(=O)NCc3ccccc3)nnc12 | 14% | 10%
CC(=O)Oc1ccc2nonc2c1OC(C)=O | 26% | 12%
COc1ccc(NC(=O)C(=O)NCCN2CCN(C(=O)c3ccc(C)cc3)CC2)cc1 | -22% | -7%
CCn1cc(CN2CCC(n3nccc3NC(=O)c3ccccc3C)CC2)c(C)n1 | i | -8%
CCS(=O)(=O)NCCc1csc2nc(-c3ccc(OC)cc3)nn12 | -2% | 8%
CCc1ccc2oc(C(=O)N(Cc3ccc(N(C)C)cc3)Cc3ccco3)c(C)c2c1 | -13% | -5%
CCCC(=O)Nc1c(O)c2ccccc2[nH]c1=O | i | -9%
Cc1onc(-c2c(Cl)cccc2Cl)c1C(O)c1ccc(F)cc1 (centres undefined) | -20% | -8%
O=c1cc(-c2ccccc2)nc(SCc2nc(-c3ccc(Cl)cc3)no2)[nH]1 | -14% | 0%
CCOC(=O)C/C(C)=N\Nc1nc(-c2ccccc2)cs1 | -23% | -12%
Cc1cccc(Nc2c3c(nc4ccccc24)CCC3)c1 | -18% | -20%
CCCCCc1ccc2cc(C#N)ccc2n1 | i | 0%
CCCCNC(=O)CCNS(=O)(=O)c1ccc(C)cc1 | -20% | -10%
O=C1c2ccccc2C(O)(Cc2ccccc2)N1CCCN1CCOCC1 (centres undefined) | i | 1%
CCN(Cc1ccccc1)S(=O)(=O)c1cc(C(=O)NC2CCCCCC2)ccc1OC | ? | -29%
S=C(Nc1ccccc1)Nc1ccc(Br)cn1 | -4% | -18%
COc1ccc(C(=O)c2oc3ccccc3c2NC(=O)COc2ccccc2)cc1 | ? | ?
CC(=O)Nc1ccc(NC(=O)c2ccccc2N(C)S(=O)(=O)c2ccccc2)cc1 | i | -9%
CCOC(=O)c1cc2c(=O)n3ccccc3nc2n(Cc2ccco2)c1=NC(=O)c1ccc(C)c(C)c1 | i | -18%
CC(=O)NC(=S)NNC(=O)c1ccc(Br)cc1 | ? | -21%
O=C(O)CC(NS(=O)(=O)c1c(F)cc(F)cc1Br)c1ccccc1Cl (centres undefined) | i | -10%
OCCC1CN(Cc2ccc(-n3cccn3)cc2)CCN1Cc1ccccc1 (centres undefined) | -10% | -13%
CN(C)c1ccc(C(=O)Nc2ccc(O)c3c(=O)cc(-c4ccccc4Cl)oc23)cc1 | i | -3%
CCOC(=O)Cn1c(=O)c2c(nc3n2CCCN3CCc2ccccc2)n(C)c1=O | -6% | -2%
NC1C=CC=C(C(=O)O)C1 (centres undefined) | -14%&-9% | -10%&-8%
CCCCC(=O)Oc1ccc2oc(-c3ccc(OC)cc3)cc(=O)c2c1 | ? | -16%
COc1ccc(-n2nc(C(=O)Nc3cc(OC)c(OC)c(OC)c3)c(=O)n(C)c2=O)cc1 | -11% | -10%
Cc1ccc(NC(=O)CN(C)CC(=O)Nc2ccccc2Oc2ccccc2)cc1 | 1% | -1%
CN(C)c1ccc(C=c2c3ccccc3n3c2cc(-c2ccccc2)[n+]3C)cc1 | 87%[activator] | 252%[activator]
COc1cccc(-c2cc(=O)c3cc(NC(=O)c4ccc(N(C)C)cc4)ccc3[nH]2)c1 | -3% | ?
OCC1OC(n2cnc3c(/C=C(\O)c4ccccc4)ncnc32)C(O)C1O (centres undefined) | ? | ?
CCCSc1nnc(NC(=O)Nc2ccccc2)s1 | i | -7%
COc1ccc(OC)c(C(=O)COC(=O)CNC(=O)c2ccccc2)c1 | i | -22%
CCc1c(C)[nH]n(-c2nc(-c3ccccc3)cs2)c1=O | -18% | -8%
Going on with the list:
SMILES | VACV mCherry inh | VACV Venus inh
CCOc1cc2[nH]c(=O)n(Cc3ccc(C(=O)NCCN(CC)CC)cc3)c(=O)c2cc1OCC | -6% | -8%
O=C(Cc1ccc(Cl)cc1)Nc1ccc2nn(-c3ccc(Cl)cc3)nc2c1 | 4% | 6%
NC(=O)C1CCCN(S(=O)(=O)c2ccccc2)C1 (centres undefined) | -15% | 0%
Cc1noc(C)c1C(=O)Nc1cccc2ncccc12 | -10% | 0%
O=C(NCc1cccs1)c1cc(-c2ccccc2)nn1CC1CC(c2cccnc2)=NO1 (centres undefined) | 4% | -6%
COC(=O)CCCOc1ccc(Cl)cc1Cl | -15% | -18%
CCSc1ccc([C@@H]2[C@@H]3C(=O)N(C)C(=O)[C@@H]3[C@]3(C(=O)OC)CCCCN23)cc1OC | -1% | -16%
Cc1cccc(CC(C)NC(=O)c2cc(COc3ccc(C)c(C)c3)on2)n1 (centres undefined) | -26% | -27%
Oc1c(I)cc(I)c2cccnc12 | -26%&-12% | ?
CCn1nc(C)c(C(=O)Nc2cc(Oc3ccc(Cl)cc3)cc([N+](=O)[O-])c2)c1C | -17% | -27%
CN(Cc1ccccc1)C(=O)c1ccc2c(c1)N(Cc1ccccc1Cl)C(=O)c1ccccc1S2 | -5% | -1%
O=C(Cn1nnc(-c2ccccc2Cl)n1)N/N=C/c1ccc(-c2cccc(Cl)c2)o1 | i | -10%
CCOC(=O)C1=C(C)Nc2nnnn2C1c1ccccc1Cl (centres undefined) | · | -19%
Cc1ccccc1-c1nc(CN2CCC(C(=O)NCCc3ccccc3)CC2)c(C)o1 | -14% | -7%
O=C(NN1C(=O)C2C(c3ccccc3)C=CC(c3ccccc3)C2C1=O)c1cccc(Br)c1 (centres undefined) | -10% | -12%

A second format for part of the listing above.
Cc1cccc(CC(C)NC(=O)c2cc(COc3ccc(C)c(C)c3)on2)n1 (centres undefined)
  VACV mCherry inh: -26%	VACV Venus inh: -27%
CCSc1ccc([C@@H]2[C@@H]3C(=O)N(C)C(=O)[C@@H]3[C@]3(C(=O)OC)CCCCN23)cc1OC
  VACV mCherry inh: -1%	VACV Venus inh: -16%
CCn1nc(C)c(C(=O)Nc2cc(Oc3ccc(Cl)cc3)cc([N+](=O)[O-])c2)c1C
  VACV mCherry inh: -17%	VACV Venus inh: -27%
NC(=O)C1CCCN(S(=O)(=O)c2ccccc2)C1 (centres undefined)
  VACV mCherry inh: -15%	VACV Venus inh: 0%

The results go on.
SMILES | VACV mCherry inh | VACV Venus inh
COc1ccc(NC(=O)COC(=O)C(CC(C)C)N2C(=O)C3CC=CCC3C2=O)cc1Cl (centres undefined) | -20% | -7%
COc1cc2c(CCNC(C)=O)c[nH]c2cc1Cl | -14% | -9%&-10%
O=c1[nH]cnc2sc3c(c12)CCC3 | i | -7%
CCC(N)Cc1c[nH]c2ccccc12 (centres undefined) | -5% | -8%
O=C(CCl)N(c1ccccc1)c1ccccc1 | i | -8%
CCCCCCCNC(=O)C1(CC2CC(c3cccc(Br)c3)=NO2)CCN(C(=O)c2cc(OCC)c(OCC)c(OCC)c2)CC1 (centres undefined) | i | -29%
CCOC(=O)N1CCN(c2cc(=O)n(-c3ccccc3C)c(=O)[nH]2)CC1 | i | -4%
O=C(N1CCc2cc(S(=O)(=O)NC[C@H]3O[C@@H](n4ccc(=O)[nH]c4=O)[C@H](O)[C@@H]3O)ccc2C1)C(F)(F)F | -12% | -1%
COc1ccc(OC)c(NC(=O)Cn2ccn(-c3ccc(OC)c(OC)c3)c(=O)c2=O)c1 | -1% | -4%
CNc1ccc(-c2ccccc2CO)cn1 | i | 8%
CCN(C(=S)NC(=O)Cc1ccc(OC)cc1)c1ccccc1 | -10% | 11%
CCn1cnc2c1c(=O)n(CC(=O)OC(C)C(N)=O)c(=O)n2Cc1ccccc1 (centres undefined) | i | -17%
CC(OC(=O)c1ccc(NC(=O)CC#N)cc1)C(=O)Nc1ccc2c(c1)OCCO2 (centres undefined) | -6% | -7%
Cc1ccc2nc(Cl)c(/C=N/NC(=O)CN3CCOCC3)cc2c1 | -3% | -7%
CN(C1CCS(=O)(=O)C1)S(=O)(=O)c1ccc(N2CCCC2=O)cc1 (centres undefined) | -2% | -19%
O=[N+]([O-])c1cccc(N/N=C/c2cc([N+](=O)[O-])ccc2O)c1 | -22% | -24%
Cc1csc(NC(=O)CCc2c(C)nc3cc(-c4cccc(F)c4)nn3c2C)n1 | -3% | -3%
O=C(CN1C2=NCCN2c2ccccc21)N1CCOCC1 | · | -14%
COCCn1c(=NC(=O)CSC(C)=O)sc2cc(OC)ccc21 | -12% | -2%
CN(C)c1cc(O)c(C(=S)Nc2ccccc2)c(N(C)C)c1 | -5% | -4%
O=C(Nc1nc(-c2ccncc2)cs1)c1ccc(S(=O)(=O)N2CCOCC2)cc1 | -18% | -17%
CC(CN(C)Cc1ccccc1)OC(=O)c1ccc2c(c1)OCCO2 (centres undefined) | -12% | -4%
Cc1cc(C)c2c(n1)SCC(=O)N2CC(=O)Nc1cc(F)ccc1F | i | -8%
CCOC(=O)c1cc2cc(C)ccc2[nH]1 | -12% | -4%
Cc1ccccc1OCc1ccc(C(=O)N2CCOCC2)o1 | -11% | 15%
CCc1nnc(NC(=O)c2ccncc2)s1 | -13% | -5%
COc1ccc(OC)c(NC(=O)CCn2c(=S)[nH]c3ccccc3c2=O)c1 | -1% | -14%
O=C(CCc1nnc(CCCCc2ccccc2)o1)NCc1cc(F)ccc1F | -8% | 2%
COc1ccc(CCNC(=O)COC(=O)CCC(=O)c2ccc(F)cc2)cc1OC | -11% | -10%
CC(=O)Nc1cc([N+](=O)[O-])ccc1N1CCOCC1 | i | 1%
CCCCn1nnnc1C(c1ccnc2ccccc12)N1CCC2(CC1)C(=O)NCN2c1ccccc1 (centres undefined) | i | 5%
Cc1ccc(C)c(-n2c(N)c(C#N)c3nc4ccccc4nc32)c1 | -5% | 1%
CC1Cc2ccccc2N1Cc1nc2cc(Cl)ccc2c(=O)[nH]1 (centres undefined) | · | -26%
O=C(C1CCN(S(=O)(=O)c2cccs2)CC1)N1CCN(c2cccc(Cl)c2)CC1 | -7% | -12%
COc1cc(-c2nnc(NC(=O)CS(=O)(=O)c3ccc(F)cc3)o2)cc(OC)c1OC | -5% | 2%
